YjeE inh – YjeE (TsaE) inhibition, E. coli. Potency, µM. AID 605. purified YjeE, fluorescence polarisation of a bound ADP probe. 71,000 compounds, 0.05% hits; active = well fitted falling curve; inconclusive = weaker or top-dose-only fall, or a rising curve; inactive = flat or poorly fitted curve;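 also: top concentration of the series not given in the record; excess ADP was the control for the full effect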
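Fluorescence polarization of a BODIPY Texas Red–ADP probe (2 uM) bound to purified YjeE (10 uM) was read after 15 min room-temperature incubation with compounds. Loss of polarization marks inhibitors; ADP serves as titrated control.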
PK Bst – alters activity of Bacillus stearothermophilus pyruvate kinase; AID 361; partly purified Bacillus stearothermophilus pyruvate kinase, luminescence ATP production; ribose 5-phosphate activator present at AC10; 51,000 compounds, 1.2% hits; Potency, µM; in the data active means potency below about 11 µM; inconclusive means mostly about 12 µM to 25 µM; inactive means weaker than that;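 the screen sought inhibitors and activators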;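 also: potency is read from the fitted curve at half-maximal effect; scaled between full activation by ribose 5 phosphate and full inhibition by luteolin; about four in five hits inhibit and the cells do not say which; series up to 57 µM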
* = called active by the depositor; i = inactive; ? = inconclusive; · = no result given.

SMILES	YjeE inh	PK Bst
COc1ccc(-c2csc(NC(C)=O)n2)cc1OC	i	?
Cc1nnc(SCC(=O)Nc2ccc3c4c(cccc24)CC3)n1C	i	·
COc1ccc(C2(C(=O)Nc3c(C)n(C)n(-c4ccccc4)c3=O)CCCC2)cc1OC	i	>57
CN(C)/N=N\c1nc[nH]c1C(N)=O	i	·
Cc1n[nH]c(C)c1C(=O)CC1(O)C(=O)N(CCc2ccccc2)c2ccc(Cl)cc21 (stereo not given)	i	>11.4
Cc1cc(C)c2c(n1)sc1c(N3CCN(CCO)CC3)ncnc12	i	>57
O=C1CCc2cc(S(=O)(=O)N3CCN(C(=O)c4ccco4)CC3)ccc2N1	i	>57
CCN(CC(=O)NC)S(=O)(=O)c1ccc(C)cc1	i	>57
CS(=O)(=O)N(CC(=O)NC1CCCC1)c1cccc(F)c1	i	>57
Cn1cnnc1SCc1ccc(C(=O)O)cc1	i	>57
c1nc(NCCc2cnc[nH]2)c2[nH]cnc2n1	i	·
COc1ccccc1-c1cc(-n2ccnc2)ncn1	i	·
Cc1cc(NS(=O)(=O)c2ccc(NC(=O)c3ccco3)cc2)no1	i	>57
O=C(CSc1nnc(-c2ccc(S(=O)(=O)N3CCCC3)cc2)o1)NCc1ccco1	i	>57
N#Cc1nc(Cc2ccccc2)oc1NCCCn1ccnc1	i	>57
CC1Cc2ccccc2N1C(=O)CSc1nnnn1-c1ccc2c(c1)OCCO2 (stereo not given)	i	>57
CCOC(=O)c1ccc(NC(=O)C2C3CCC(C3)C2C(=O)O)cc1 (stereo not given)	i	·
CC1CCC(NC(=O)CC2Oc3ccccc3NC2=O)CC1 (stereo not given)	i	·
N#CCCN(C(=O)Nc1ccccc1)c1ccccc1	i	>57
COC(=O)n1c(=S)oc2cc(Cl)ccc21	i	>57
CCOc1ccc(NC(=O)C2CC(C)=C(C)CC2C(=O)O)cc1 (stereo not given)	i	·
COc1ccc(CCNC2=NCC(C)S2)cc1 (stereo not given)	i	>57
N[C@@H](Cc1[nH]nc2ccccc12)C(=O)O	i	·
CCOC(=O)c1ccc(NC(=O)CC2SCCNC2=O)cc1 (stereo not given)	i	>57
CCOC(=O)N1CCN(C(=O)c2cc3c(-c4ccc(Cl)cc4)nn(C)c3s2)CC1	i	·

Taken from the entries so far for reference:
SMILES	YjeE inh	PK Bst
O=C1CCc2cc(S(=O)(=O)N3CCN(C(=O)c4ccco4)CC3)ccc2N1	i	>57
CCN(CC(=O)NC)S(=O)(=O)c1ccc(C)cc1	i	>57
CS(=O)(=O)N(CC(=O)NC1CCCC1)c1cccc(F)c1	i	>57
Cn1cnnc1SCc1ccc(C(=O)O)cc1	i	>57

The listing continues:
SMILES	YjeE inh	PK Bst
CCCn1c(SCC(=O)N2CCCc3ccccc32)nc2c1c(=O)n(C)c(=O)n2C	i	>57
CCOC(=O)C1CCCN(S(=O)(=O)c2cn(C)c(=O)n(C)c2=O)C1 (stereo not given)	i	·
Cc1c(=O)n(OCc2ccccc2F)c2ccccc2[n+]1[O-]	i	>57
Cc1ccc(S(=O)(=O)Cn2nnnc2CN2CCOCC2)cc1	i	>57
CN1CCN(S(=O)(=O)c2ccc(NC(=O)C3CCCCC3)cc2)CC1	i	>57
NS(=O)(=O)c1cc(C(=O)O)c(NCc2ccco2)cc1Cl	i	·
COCCn1c(SCC(=O)c2ccc(F)cc2)nnc1C(C)C	i	>57
Cc1csc(NC(=O)c2ccccc2C(=O)O)n1	i	>57
O=C(O)[C@H](Cc1ccccc1)N1C(=O)c2ccncc2C1=O	i	>57
COc1ccccc1Nc1nc(N)nc(CSc2nc(C)cc(C)n2)n1	i	>57
OC(CCN1CCCCC1)(c1ccccc1)c1ccccc1	i	>25.6
CCOc1ccc(NC(=O)N(CCN2CCOCC2)Cc2ccc3c(c2)CCCN3CC)cc1	i	>57
Cc1ccc(NC2=NC(c3ccccc3)n3c(nc(C)cc3=O)N2)cc1 (stereo not given)	i	>57
c1ccc(CCNc2ncnc3nc[nH]c23)cc1	i	·
Cc1ccc(N(CC(=O)NCc2ccc3c(c2)OCO3)S(C)(=O)=O)cc1	i	>57
COCCn1c(SCC(=O)Nc2nc(C)c(Cl)cc2Cl)nc2ccccc21	i	?
COc1ccccc1OCCCCNCCO	i	·
O=C(Nc1ccc2c(c1)OCCO2)c1ccco1	i	·
COCC(C)n1c(C)cc(C(=O)COC(=O)c2c(NC(C)=O)sc(C)c2C)c1C (stereo not given)	i	>57
CCOC(=O)c1[nH]c(C)c(C(=O)NCCC2=CCCCC2)c1C	i	>57
O=C(CSc1ncccn1)Nn1cnnc1	i	>57
CC(C)C[C@H](NC(=O)N1CCN(c2ccccc2)CC1)C(=O)O	i	>57
C=CCn1c(SCc2cccnc2)nnc1-c1ccncc1	i	>57
O=S(=O)(c1ccccc1)N1CCC[C@@]2(CCN(C(c3ccccc3)c3ccccc3)C2)C1	i	·
Cn1c(C(O)c2ccc(Cl)cc2)nc(Cl)c1Cl (stereo not given)	i	?

Additional results
SMILES	YjeE inh	PK Bst
CCc1ccccc1NC1c2ccccc2C(=O)N1c1cc(C)ccn1 (stereo not given)	i	·
CCn1c(=N)c(C(=O)NCCCOC)cc2c(=O)n3cccc(C)c3nc21	i	>57
Cc1ccc2c(CN3CCCc4ccccc43)cc(=O)oc2c1C	i	>57
COc1ccc(C(=O)N2CCC3(CC2)CN(c2ccc(-c4ccccc4)cc2)C3)cc1	i	·
CC(C)=CCSc1nnc(CCNC(=O)OC(C)(C)C)o1	i	>57
CCCc1cc(=O)[nH]c(SCC(=O)Nc2nonc2N)n1	i	>57
O=C(O)CCS(=O)(=O)Cc1ccccc1F	i	>57
COc1cc(OC)cc(C(=O)N(CN2CCCC2=O)c2ccccc2OC)c1	i	>57
CN1C(=O)CSc2ccc(NC(=O)N3CCc4ccccc43)cc21	i	8.22*
COc1cccc2sc(Nc3nnc(-c4ccccc4Cl)o3)nc12	i	·
O=C(NCCCN1CCN(c2ccc(F)cc2)CC1)c1cccc(N2CCCC2=O)c1	i	>57
COc1cccc(C=Nc2cc(C)on2)c1O	i	·
CC(C)Oc1ccc(C2/C(=C(/O)c3ccc(F)cc3)C(=O)C(=O)N2CCCN(C)C)cc1 (stereo not given)	i	>57
O=C1CCCC2=C1C(c1ccncc1)c1c(nc(SCc3ccccc3)[nH]c1=O)N2 (stereo not given)	i	>57
CCNC(=O)CC1C(=O)N(c2ccccc2)C(=O)N1CCc1ccc(OC)cc1 (stereo not given)	i	>57
COC1CCCCC1NS(=O)(=O)c1ccc(Cl)cc1 (stereo not given)	i	·
CCOc1ccccc1NC(=O)c1ccc(S(=O)(=O)N2CCOCC2)cc1	i	>57
O=S(=O)(c1ccc(Cl)s1)N1CCN(C/C=C/c2ccccc2)CC1	i	>57
O=S(=O)(c1cccc(-c2nnc(-c3cccnc3)o2)c1)N1CCCCC1	i	·
CCCC(c1nnnn1C1CCCC1)N1CCN(C(=O)c2ccco2)CC1 (stereo not given)	i	>57
CCOC(=O)C1CCN(c2ncnc3c2cnn3-c2ccccc2)CC1	i	·
CCc1nnc(NC(=O)CSc2nnc(-c3ccoc3C)n2-c2cccc(C)c2)s1	i	>57
COC(=O)c1cc2c(cc1NC(=O)CSCCc1ccccn1)OCO2	i	>57
Nc1nc2ccc(C(=O)Nc3ccccc3)cc2s1	i	>57
COC(=O)C1=C2SC(C)C(=O)N2C(N)=C(C#N)C1c1cc(OC)c(OC)c(OC)c1 (stereo not given)	i	>57

New compounds follow
SMILES	YjeE inh	PK Bst
COc1ccc(OC)c(C(c2nnnn2CC2CCCO2)N2CCN(C3CCCC3)CC2)c1 (stereo not given)	i	>57
CC(=O)c1c(O)cc(C)n(Cc2ccccc2)c1=O	i	>57
Clc1ccccc1-c1cc(NCCN2CCOCC2)ncn1	i	·
COc1ccc(CCNC(=O)c2nnn(-c3ccccc3OC)c2N)cc1OC	i	>57
Cc1cc(C)c2nc(C(F)(F)F)nc(N3CCN(C(=O)c4ccco4)CC3)c2c1	i	>57
O=C(Nc1cccc(O)c1)c1ccc(Br)c(S(=O)(=O)N2CCCCC2)c1	i	·
O=C(NCCc1ccc(Cl)cc1)C1CCN(c2cnccn2)CC1	i	>57
O=C(c1ccncc1)N1CCN(C(=O)c2ccco2)CC1	i	>57
CN1CCN(CC(=O)Nc2cccc3ccccc23)CC1	i	·
O=C(COc1ccccc1)Nc1ccc(Cl)c(-c2nc3ncccc3o2)c1	i	>57
CCOC(=O)c1ccc(NC(=O)CC2Sc3ncnn3C2=O)cc1 (stereo not given)	i	>57
COC(=O)C1CCN(C(=O)COc2cc3sc(C)nc3c3sccc23)CC1	i	>57
O=C(Cc1nc2ccccc2[nH]1)NCc1ccco1	i	>57
CC(C)(C)OC(=O)N1CCN(c2ccc(NC(=O)c3cc4ccccc4oc3=O)cc2)CC1	i	>57
Cc1ccc(-n2c(N)c(C(N)=O)sc2=S)c(C)c1	i	>57
Cc1cc(C)nc(SCC(=O)Nc2ncc3c(n2)CC(C)(C)CC3=O)n1	i	>57
Cn1c(=O)oc2cc(S(=O)(=O)NCc3ccncc3)ccc21	i	>57
O=C(NCCOc1nc(N2CCCCC2)nc(N2CCOCC2)n1)Nc1ccccc1	i	>57
COc1cc(-c2nn3c(-c4ccccn4)nnc3s2)cc(OC)c1OC	·	>25.6
Oc1ccc2oc3c(c2c1/C=N/n1cnnc1)CCCC3	i	·
COc1ccc(C2CC(=O)C(C=NCCO)=C(O)C2)cc1OC (stereo not given)	i	·
c1ccc2c(c1)c1c3n2CCNC3CCC1 (stereo not given)	i	>57
CCOC(=O)CNC(=O)c1cn(CC(C)C)c(=O)c2cc(OC)c(OC)cc12	i	>57
c1cncc(-c2nc3ccccc3o2)c1	i	>11.4
O=C(Nc1ccc2oc(=O)c(C(=O)O)cc2c1)Oc1ccccc1	i	·

Marked active in PK Bst, among the entries above:
SMILES	YjeE inh	PK Bst
CN1C(=O)CSc2ccc(NC(=O)N3CCc4ccccc43)cc21	i	8.22*

Additional compounds follow:
SMILES	YjeE inh	PK Bst
CC1=C(/C=C/C(C)=C/C=C/C(C)=C/C=O)C(C)(C)CCC1	i	·
Cc1ccc2nc3c(cc(C(=O)NCc4ccccc4)c(=N)n3CCCn3ccnc3)c(=O)n2c1	i	>57
Cc1cccc(OCCNc2nc3c(c(=O)n(C)c(=O)n3C)n2C)c1	i	>57
Cc1ccc(Cl)c(OCC(O)CN(CCO)CCO)c1 (stereo not given)	i	>57
CCCn1nnc(NC(=O)COc2cc(C)ccc2C(C)C)n1	i	>57
Cc1cnc(CNc2ccnc(-c3ccccc3C)n2)cn1	i	·
CCc1ccccc1NC(=O)CN(C)C(=O)CN1C(=O)NC2(CCCCCC2)C1=O	i	>57
O=C(c1ccc(C23CC4CC(CC(C4)C2)C3)o1)N1CCOCC1	i	>57
CS(=O)(=O)N(CC(=O)N1CCN(c2cccc(Cl)c2)CC1)c1ccccc1	i	>57
CCn1cc(C(=O)NCc2ccco2)c(=O)c2cc(S(=O)(=O)N3CCCCCC3)ccc21	i	>57
c1cncc(-c2nccc(NCc3cccs3)n2)c1	i	·
CCCOc1ccc(NC(=O)C2CCCNC2=O)cc1 (stereo not given)	i	>57
CN1CCN(c2ccnc(-c3ccc(N(C)C)cc3)n2)CC1	i	·
Cc1cc(C)c2c3c(sc2n1)C(=O)N(C)CC(=O)N3	i	>57
Cc1cc(C)nc(NC2=NCC(=O)N2c2ccc3c(c2)OCCO3)n1	i	>57
O=C(CCCC(=O)n1cnc2ccccc21)n1cnc2ccccc21	i	·
COc1ccc(OC)c(-n2nnnc2SCC(=O)NCc2ccc3c(c2)OCO3)c1	i	>57
CCOC(=O)C1=C(C)NC(=O)NC1c1cn(-c2ccccc2)nc1-c1cccs1 (stereo not given)	i	·
CC(C)(C)NCC1(CO)SC(N)=NC1=O (stereo not given)	i	>57
O=C(OCC(=O)N1CCN(C(=O)c2ccco2)CC1)c1cc(=O)c2ccccc2o1	i	>57
CN(C)C(CNS(=O)(=O)c1ccc(Br)cc1)c1cccnc1 (stereo not given)	i	>57
CC1(C)CC(=O)c2cc(OCC(=O)NCC3CCCO3)ccc2O1 (stereo not given)	i	>57
CN(C1CCCCC1)S(=O)(=O)c1ccccc1	i	>57
CCC(Oc1ccc2ccccc2c1)C(=O)O (stereo not given)	i	>57
c1cnc(N2CCSCC2)nc1	i	·

Some of these compounds in order of length of the SMILES, ascending.
SMILES	YjeE inh	PK Bst
N#Cc1nc(Cc2ccccc2)oc1NCCCn1ccnc1	i	>57
CCCn1nnc(NC(=O)COc2cc(C)ccc2C(C)C)n1	i	>57
CCc1ccccc1NC1c2ccccc2C(=O)N1c1cc(C)ccn1 (stereo not given)	i	·
COC(=O)C1CCN(C(=O)COc2cc3sc(C)nc3c3sccc23)CC1	i	>57
CCc1ccccc1NC(=O)CN(C)C(=O)CN1C(=O)NC2(CCCCCC2)C1=O	i	>57
CCOc1ccc(NC(=O)N(CCN2CCOCC2)Cc2ccc3c(c2)CCCN3CC)cc1	i	>57
O=C(CSc1nnc(-c2ccc(S(=O)(=O)N3CCCC3)cc2)o1)NCc1ccco1	i	>57

Continuation.
SMILES	YjeE inh	PK Bst
N=c1ncn(CC(O)CN2CCOCC2)c2nc(N3CCOCC3)[nH]c12 (stereo not given)	·	>25.6
COc1ccc(CNC(=O)c2ccc3nccnc3c2)cc1	i	·
Cc1ccc(N[C@H](c2ccccc2)c2ccc3cccnc3c2O)cc1	i	·
c1ccc(Cc2nn[nH]n2)cc1	·	>25.6
COC(=O)c1ccc(CSc2nc(C)nc3c2c(=O)n(C)c(=O)n3C)o1	i	·
COc1cc(NC(=O)Cc2nn(C)c(=O)c3ccccc23)cc(OC)c1	i	>57

Only part of the results is shown; the hit share may differ from the screen's.
